Screening data as filed in PubChem BioAssay.
PV pol inh = inhibitors of poliovirus RNA polymerase binding and polymerization; % elongation, % (compound at 16.7 µg/mL); P03300; poliovirus polymerase elongation, fluorescence polarization; hits give low values; AID 588519; 150,000 tested, 0.66% active; in the data active = % elongation below about 90%; also: some results filed as inactive read as strong as hits
MenB inh = inhibitors of Mycobacterium tuberculosis MenB enzyme; MenB enzyme assay, absorbance read-out; some hits fall short of the stated cut; 100,000 tested, 0.43% active; inhibition, %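 (about 12 µg/mL by stock and volumes)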;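 active = mean of two replicates above 30%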;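 also: 0% = no compound and 100% = wells with inactive enzyme; the first replicate is given; strong numbers were not always called active; inactives centre near -10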
Target sequence (P9WNP5 whole entry, looked up): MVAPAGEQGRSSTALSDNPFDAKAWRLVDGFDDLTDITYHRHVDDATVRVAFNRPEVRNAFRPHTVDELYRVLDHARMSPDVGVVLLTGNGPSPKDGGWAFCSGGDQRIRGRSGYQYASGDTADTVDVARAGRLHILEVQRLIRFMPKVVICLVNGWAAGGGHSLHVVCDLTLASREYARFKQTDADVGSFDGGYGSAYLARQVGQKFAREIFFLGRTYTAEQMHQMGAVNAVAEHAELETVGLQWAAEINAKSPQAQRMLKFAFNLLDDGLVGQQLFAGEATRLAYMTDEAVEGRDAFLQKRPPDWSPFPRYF
Mtb MbtI inh = MbtI salicylate synthase inhibition; P9WFX0; purified MbtI enzyme, fluorescence intensity read-out; inhibition, %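 (about 17 µg/mL by stock and volumes)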; 100,000 tested, 0.89% active; AID 493033;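 active = above 50% in both replicates, above 80% if mildly self-fluorescent; inactive = the rest, strongly fluorescent compounds included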;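 also: 0% = mean of negative and 100% = mean of positive controls; one replicate is shown; some compounds called inactive have numbers as strong as hits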
Target sequence (P9WFX0 whole entry, looked up): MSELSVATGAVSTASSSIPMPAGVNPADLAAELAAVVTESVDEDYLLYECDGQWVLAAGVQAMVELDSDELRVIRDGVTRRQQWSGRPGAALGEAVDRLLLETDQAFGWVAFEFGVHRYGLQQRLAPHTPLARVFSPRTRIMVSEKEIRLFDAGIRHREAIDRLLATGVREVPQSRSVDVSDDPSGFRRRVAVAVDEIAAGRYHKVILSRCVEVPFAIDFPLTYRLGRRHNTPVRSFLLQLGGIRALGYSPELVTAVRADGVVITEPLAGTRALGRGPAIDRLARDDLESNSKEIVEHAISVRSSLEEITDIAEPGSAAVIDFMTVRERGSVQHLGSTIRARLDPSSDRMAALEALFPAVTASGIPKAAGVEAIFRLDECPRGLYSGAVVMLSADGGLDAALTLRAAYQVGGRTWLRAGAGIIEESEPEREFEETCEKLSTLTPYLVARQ
PV pol inh intensity = second read-out of PV pol inh, no call of its own (marks repeat the call); % elongation; measured here: total intensity read-out; formula for this scale not given here;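 total fluorescence in place of polarization; lower means less elongation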
Numbers without * were called inactive; i = inactive; / = no result given.

(1) CC1CC(C)CN(S(=O)(=O)c2ccc(CN3C(=O)c4cccnc4C3=O)cc2)C1 (configuration not stated)
(2) COc1ccc(C(=O)NCCc2ccc(O)cc2)c(OC)n1
(3) O=c1ccc(=O)n(-c2ccccc2)[nH]1
(4) Cc1c(C)c(C)c(CSC2=NCCS2)c(C)c1C
(5) CCSC1=N/C(=C\c2ccsc2)C(=O)S1
(6) CS(=O)(=O)Cc1ccc(Oc2ccc(NS(C)(=O)=O)cc2)cc1
(7) O=C(Nn1cnnc1)c1ccccc1-c1ccccc1
(8) COc1ccc2[nH]cc(CCNS(C)(=O)=O)c2c1

entry no. | 1 | 2 | 3 | 4 | 5 | 6 | 7 | 8
PV pol inh | 103 | 102 | 110 | 110 | 102 | 100 | 102 | 101
PV pol inh intensity | 102 | 105 | 112 | 113 | 105 | 94 | 98 | 102
MenB inh | -10 | -1 | -6 | -10 | -138 | -28 | -24 | -3
Mtb MbtI inh | -13 | 1 | -2 | -5 | -8 | / | -11 | 23

(9) NCCCc1nc2ccccc2[nH]1
(10) Cc1[nH]c(=O)[nH]c(=O)c1S(=O)(=O)NCc1ccccn1
(11) COc1ccc(N2CCN(C(=O)Cc3nn(C)c(=O)c4ccccc34)CC2)cc1
(12) COC(=O)C1C(=O)C2=C(CC1C)NC(=O)CC2c1cccc(OC)c1 (configuration not stated)
(13) CC(C)(C)c1cc(Cl)c(O)c(N=Cc2ccccc2O)c1
(14) CC(NC(=O)Nc1cccnc1)N1C(=O)C2C3C=CC(C3)C2C1=O (configuration not stated)
(15) N#Cc1c(-n2cccc2)sc2c1CCCC2
(16) CCCCN(C)S(=O)(=O)c1ccc2c(c1)CCN2C(=O)CC

entry no. | 9 | 10 | 11 | 12 | 13 | 14 | 15 | 16
PV pol inh | 104 | 111 | 102 | 102 | 104 | / | 102 | 101
PV pol inh intensity | 101 | 109 | 108 | 96 | 109 | / | 107 | 109
MenB inh | -8 | -10 | -20 | -21 | -26 | 13 | -22 | -23
Mtb MbtI inh | -16 | / | -9 | 4 | 35 | 5 | -12 | -1

Looked up above.
For MenB inh, cpd 9 is entered as -8
For MenB inh, cpd 16 is entered as -23

Continued.
(17) O=C(OCc1cc(=O)n2c3c(sc2n1)CCCC3)C1CSC2(c3ccc(F)cc3)CCC(=O)N12 (configuration not stated)
(18) CCC(=O)Nc1ccc(C(=O)COc2ccc(OC)cc2)cc1
(19) c1ccc2c(-n3cccn3)cccc2c1
(20) N#Cc1ccc(CSc2ccccn2)c(Cl)c1
(21) O=C(COc1cccc(-n2cnnn2)c1)NC1CCCCC1
(22) CCOCC(=O)Nc1cccc(-c2nc3cccnc3s2)c1
(23) Cc1ccccc1N1C(=O)c2ccccc2NC1(C)CC(=O)NCc1ccccc1 (configuration not stated)
(24) O=C(c1ccc2c(c1)N(Cc1ccc(F)cc1)C(=O)/C(=C/c1ccccc1)S2)N1CCCC1

entry no. | 17 | 18 | 19 | 20 | 21 | 22 | 23 | 24
PV pol inh | 100 | 94 | 102 | 104 | 103 | 99 | 108 | 103
PV pol inh intensity | 100 | 98 | 103 | 108 | 102 | 102 | 109 | 104
MenB inh | 3 | 9 | -11 | -10 | 12 | -4 | -12 | -41
Mtb MbtI inh | -10 | 11 | 7 | / | -7 | 106 | / | 4

(25) CN(C)c1ccc2c3c(ccc(N(C)C)c13)C(=O)OC2
(26) CCOP(=S)(c1ccccc1)C1(C#N)CCCC1 (configuration not stated)
(27) CCC(=O)Nc1ccc(C(=O)Cn2nc(C(=O)O)c3ccccc3c2=O)cc1
(28) N#C/C=C(\Sc1nnc(C2CCCCC2)n1N)c1ccccc1
(29) CN(C)c1nc(N2CCOCC2)nc(N2CCOCC2)n1
(30) CN1C(=O)c2c(nc[nH]c2=O)C12CCCC2
(31) Cc1ccc(NN)cc1C
(32) CCCS(=O)(=O)NCCc1cc2c(OC)ccc(OC)c2[nH]c1=O

entry no. | 25 | 26 | 27 | 28 | 29 | 30 | 31 | 32
PV pol inh | 103 | 101 | 101 | 99 | 104 | 99 | 100 | 101
PV pol inh intensity | 103 | 102 | 107 | 96 | 111 | 104 | 103 | 99
MenB inh | -17 | -16 | -13 | -33 | 7 | 7 | -4 | 1
Mtb MbtI inh | 8 | -10 | -11 | 91 | 4 | 17 | 18 | 10

(33) FC(F)(F)c1nc(NNC(=S)NCC2CCCO2)c2ccccc2n1 (configuration not stated)
(34) CN1CCN(C(=O)c2ccc3c(c2)N(Cc2ccccc2F)C(=O)c2ccccc2S3=O)CC1 (configuration not stated)
(35) Cc1ccc(NC(=O)CSC(C)C(=O)N2CCC(C)CC2)cc1 (configuration not stated)
(36) CCCCn1c(=O)n(CC(=O)Nc2ccccc2F)c(=O)c2c1ncn2Cc1ccco1
(37) Cc1ccc(C)n1-c1ccc(C(=O)N(C)Cc2nc3ccccc3c(=O)[nH]2)cc1
(38) Cn1cccc1C1CCCN1CC(=O)Nc1ccccc1C(=O)Nc1ccccc1 (configuration not stated)
(39) CC(C)(Oc1ccc(Cl)cc1)C(=O)NC1CCCCNC1=O (configuration not stated)
(40) C#CCCCCCCCCCCCC(O)CC(O)CO (configuration not stated)

entry no. | 33 | 34 | 35 | 36 | 37 | 38 | 39 | 40
PV pol inh | 100 | 99 | 101 | 120 | 107 | 106 | 108 | 98
PV pol inh intensity | 104 | 102 | 104 | 125 | 98 | 107 | 110 | 96
MenB inh | -28 | 2 | -15 | -6 | -1 | -5 | -11 | -16
Mtb MbtI inh | 20 | 0 | -18 | -13 | 26 | -3 | -3 | -2

(41) Cn1ccnc1SC(=O)N1c2ccccc2Sc2ccccc21
(42) CNc1nsc(C(=O)c2ccc(OC)cc2)c1N
(43) Cc1cc(C)n(CCCNC(=O)c2ccc(NS(=O)(=O)c3cc(Cl)sc3Cl)cc2)n1
(44) Cc1ccc(C(=O)c2oc3ccccc3c2NC(=O)C(C)C)cc1
(45) O=C(CN1CCN(Cc2ccccc2)C1=O)NCCN1CCOCC1
(46) S=C(Nc1ccc(Cl)c(Cl)c1)NC1CCCC1
(47) Cc1ccc(Nc2nc(C)cs2)cc1
(48) CC(=O)NCCC(=O)Nc1cccc(C#N)c1

entry no. | 41 | 42 | 43 | 44 | 45 | 46 | 47 | 48
PV pol inh | 101 | 101 | 105 | 104 | 102 | 100 | 103 | 99
PV pol inh intensity | 100 | 105 | 110 | 110 | 102 | 108 | 100 | 105
MenB inh | 28 | -37 | -16 | -17 | 4 | -23 | -54 | 0
Mtb MbtI inh | 12 | 8 | -11 | 10 | -4 | 2 | 78 | -3

(49) CCOC(=O)c1[nH]c(=O)c2ccccc2c1O
(50) O=C(Cc1cc(=O)[nH]c(=O)[nH]1)N1CCCCC1
(51) NNC(=O)c1csc(-c2cccs2)n1
(52) CC(=O)N1CC=C2C(C#N)=C(N)C(C#N)(C#N)C(Cc3ccccc3)C2C1 (configuration not stated)
(53) O=C(NCCN1CCOCC1)c1ccc(NC(=O)C2COc3ccccc3O2)cc1 (configuration not stated)
(54) CCOC(=O)c1oc2ccccc2c1COC(=O)c1ccc(S(C)(=O)=O)cc1
(55) COc1ccc(C2C(=O)N(C3CCCCC3)CC(=O)N2Cc2ccccc2)cc1 (configuration not stated)
(56) Cc1cc2c(cc1C)C(c1ccncc1)CC(=O)N2 (configuration not stated)

entry no. | 49 | 50 | 51 | 52 | 53 | 54 | 55 | 56
PV pol inh | 102 | 100 | 104 | 103 | 101 | 108 | 101 | 102
PV pol inh intensity | 102 | 108 | 109 | 101 | 102 | 116 | 101 | 105
MenB inh | -3 | -22 | 7 | -35 | -9 | -2 | 12 | 1
Mtb MbtI inh | 18 | -3 | 3 | 88 | 5 | 1 | 2 | 0

(57) O=C(O)c1ccccc1C(F)(F)F
(58) Cc1noc(C)c1COc1cc2ccccc2cc1C(=O)O
(59) Cc1cc(C)c2c(=O)[nH]c(SCC(=O)Nc3ccccc3)nc2n1
(60) COc1ccc(OCC(=O)N/N=c2\oc3c(OC)cccc3cc2C(N)=O)cc1
(61) CC(OC(=O)Cn1cnc2ccccc2c1=O)C(=O)NCc1ccccc1 (configuration not stated)
(62) CC(C)C(=O)Nc1ccc(N)cc1
(63) CCn1c(-c2cccs2)c(CNC(=O)NCc2ccccc2)c2ccccc21
(64) CCN(C(=O)CCn1c(=O)sc2ccccc21)c1cccc(C)c1

entry no. | 57 | 58 | 59 | 60 | 61 | 62 | 63 | 64
PV pol inh | 101 | 104 | 103 | 102 | 98 | 103 | 107 | 100
PV pol inh intensity | 107 | 98 | 106 | 106 | 100 | 102 | 102 | 104
MenB inh | / | 12 | -3 | -26 | 8 | 7 | -19 | -23
Mtb MbtI inh | -9 | 181 | 2 | -26 | 15 | 3 | 13 | -2

Five records drawn at random from those above, as already listed:
(61) CC(OC(=O)Cn1cnc2ccccc2c1=O)C(=O)NCc1ccccc1 (configuration not stated)
(60) COc1ccc(OCC(=O)N/N=c2\oc3c(OC)cccc3cc2C(N)=O)cc1
(57) O=C(O)c1ccccc1C(F)(F)F
(59) Cc1cc(C)c2c(=O)[nH]c(SCC(=O)Nc3ccccc3)nc2n1
(58) Cc1noc(C)c1COc1cc2ccccc2cc1C(=O)O

entry no. | 61 | 60 | 57 | 59 | 58
PV pol inh | 98 | 102 | 101 | 103 | 104
PV pol inh intensity | 100 | 106 | 107 | 106 | 98
MenB inh | 8 | -26 | / | -3 | 12
Mtb MbtI inh | 15 | -26 | -9 | 2 | 181

The list goes on.
(65) O=C(Nc1ccc(S(=O)(=O)Nc2ncccn2)cc1)C1=NN(c2ccccc2)C(=O)CC1
(66) Brc1ccc(-n2cccc2)nc1
(67) CCS(=O)(=O)Nc1cc(C(C)(C)C)on1
(68) O=C(O)/C=C\C(=O)N1CCN(c2nc(-c3ccccc3)ns2)CC1
(69) COCc1c(C(=O)OCc2cc(Cl)cc3c2OCOC3)oc2ccccc12
(70) Cc1nc(NC(=O)c2oc3ccccc3c2C)sc1C(=O)N(C)C
(71) O=C1C=C(Nc2ccccc2)CC(c2ccccc2)C1 (configuration not stated)
(72) CSC1=C(C#N)C2(CCCC2)C(C#N)C(=O)N1 (configuration not stated)

entry no. | 65 | 66 | 67 | 68 | 69 | 70 | 71 | 72
PV pol inh | 98 | 101 | 102 | 98 | 102 | 99 | 102 | 105
PV pol inh intensity | 95 | 104 | 103 | 101 | 107 | 101 | 103 | 111
MenB inh | 3 | -9 | -54 | -18 | -18 | 9 | -52 | /
Mtb MbtI inh | i | -6 | 1 | -5 | -15 | -16 | -8 | -12

An excerpt from above in order of count of non-hydrogen atoms, smallest number first:
(62) CC(C)C(=O)Nc1ccc(N)cc1
(47) Cc1ccc(Nc2nc(C)cs2)cc1
(55) COc1ccc(C2C(=O)N(C3CCCCC3)CC(=O)N2Cc2ccccc2)cc1 (configuration not stated)

entry no. | 62 | 47 | 55
PV pol inh | 103 | 103 | 101
PV pol inh intensity | 102 | 100 | 101
MenB inh | 7 | -54 | 12
Mtb MbtI inh | 3 | 78 | 2

The results go on.
(73) N#C/C(=C\N1CCC(n2cccc2)CC1)C(=O)c1ccccc1
(74) CCN(CC)C(=O)Cn1cc(C(=O)C(C)C)c2ccccc21
(75) CC(C)(C)OC(=O)N/N=C\c1cccs1
(76) COc1cc(C(=O)OCC(=O)c2cc(C)n(C3CC3)c2C)cc2c1OCCO2
(77) CC(C)(C)n1nnnc1C(c1ccc2ncccc2c1)N1CCOCC1 (configuration not stated)
(78) CCOC(=O)c1cnc(Nc2nc3ccccc3o2)nc1CSc1ncccn1
(79) CC1=C(C(=O)c2ccccc2)C(c2ccc(F)cc2)NC(=O)N1 (configuration not stated)
(80) Cc1cccc(Cl)c1NC(=S)NC(Cc1ccccc1)c1ccccc1 (configuration not stated)

entry no. | 73 | 74 | 75 | 76 | 77 | 78 | 79 | 80
PV pol inh | 102 | 101 | 102 | 99 | 104 | 100 | 98 | 107
PV pol inh intensity | 107 | 104 | 100 | 104 | 102 | 103 | 101 | 106
MenB inh | -26 | 25 | -6 | -4 | -33 | -19 | -9 | -20
Mtb MbtI inh | -14 | 14 | 19 | 2 | 3 | -2 | -1 | -8

(81) Cc1ccc(-c2nc3c(cnn3-c3ccccc3)c(=O)n2-c2cccc(C)c2)cc1
(82) Cc1ccc(CN(C(=O)c2ccccc2)C2CCS(=O)(=O)C2)cc1 (configuration not stated)
(83) c1ccc(-c2nnn(-c3cnc4ccccc4c3)n2)cc1
(84) CCOC(=O)c1c(N2C(=O)CCC2=O)sc2c1CCC(C)C2 (configuration not stated)
(85) Cn1cnnc1SCC(=O)NCc1cccc(C(F)(F)F)c1
(86) CCN(CC(=O)NCc1ccc(F)cc1)C(=O)c1cccnc1SC
(87) O=C(c1ccc(NS(=O)(=O)c2ccccc2)cc1)N1CCCC1
(88) N#Cc1c(-c2cccnc2)c2c([nH]c1=O)-c1ccccc1CC2

entry no. | 81 | 82 | 83 | 84 | 85 | 86 | 87 | 88
PV pol inh | 99 | 102 | 102 | 104 | 103 | 100 | 103 | 106
PV pol inh intensity | 102 | 104 | 100 | 102 | 106 | 95 | 101 | 115
MenB inh | 7 | -15 | -14 | 14 | -19 | -26 | -20 | -5
Mtb MbtI inh | 3 | -17 | -3 | -248 | 7 | 2 | -2 | -161

(89) Clc1cccc(C=NN2CCN(Cc3ccccc3)CC2)c1Cl
(90) COC(=O)C1CSCN1C(=O)Nc1ccccc1 (configuration not stated)
(91) COc1ccc(C(=O)OCc2cc(C)on2)cc1Br
(92) CCOC(=O)C1CC1c1ccccc1 (configuration not stated)

entry no. | 89 | 90 | 91 | 92
PV pol inh | 101 | 108 | 98 | 106
PV pol inh intensity | 94 | 102 | 102 | 102
MenB inh | -9 | -31 | -17 | -43
Mtb MbtI inh | 13 | -3 | 1 | -3

This is a random part of the collection; about 1.7% have a hit in one of these screens.
